PrP UTR inh: inhibition of PrP 5' UTR reporter expression; 0.35% of 340,000 active; inhibition, % (no concentration beside the values); cell-based PrP 5' UTR mRNA reporter, plate reader;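 active = every replicate at 50% or more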;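 note: 0 = median of the neutral control wells; tested in H4 reporter cells; numbers are from one replicate; inactives centre near -14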
Bead autofluor: compound fluorescence in toxin protease inhibitor counterscreen; compound autofluorescence counterscreen, microsphere flow cytometry; stronger effect = higher value; fluorescence intensity (test concentration not listed); 3.1% of 360,000 active;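 active = at least 3 SD above the mean of all compounds, about 16000 in these data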;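 note: 100 nL of 1 mM stock went into each well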
Mtb hypoxia rep: reduces hypoxia-regulated biosensor signal in M. tuberculosis | fluorescence inhibition, % (concentration not given with the values) | M. tuberculosis hypoxia-regulated fluorescent reporter, fluorescence | 0.1% of 300,000 active | AID 1159583;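 active = 35 to 45% if threefold the growth effect, above 45% if 1.5-fold the growth effect; inactive = the rest, general growth blockers included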;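 note: wells of about 50 µL received 100 nL stock; 0% = vehicle wells and 100% = reference inhibitor wells; whole bacteria with a GFP reporter of the hypoxia response; strong numbers were not always called active; many hits fall short of the cut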
Sa ugtP lethal: compounds lethal to S. aureus RN4220 ugtP deletion mutant; growth inhibition, % (concentration not given with the values); OD600 growth, 16 h; some inactives read as strong as hits; 0.54% of 330,000 active;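 active = z-score under -3 and OD600 up to 0.15 on both plates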;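 note: plate controls were untreated wells for no effect and antibiotic for full effect; wells of about 80 µL received 100 nL stock; the first replicate is given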
Sa RN4220 lethal: kills Staphylococcus aureus RN4220; S. aureus RN4220 growth, OD600, 16 h; inhibition, % (concentration not given with the values); 0.33% of 330,000 active;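 active = z-score of -3 or lower and OD600 up to 0.18 on both plates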;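 note: plate controls were untreated cells for no effect and reference antibiotic for full effect; stock transfer was 100 nL into about 80 µL; one replicate is shown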
BJeLR viability: kills HRASV12-expressing BJeLR cells; AID 1554; 0.17% of 300,000 active; inhibition, % (concentration not given with the values); BJeLR (HRASV12) viability, CellTiter-Glo ATP luminescence, 48 h; reference of the scale not given here;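 active = replicate mean above 50%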;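 note: 50 nL library stock added to about 25 µL; numbers are from one replicate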
Mtb hypoxia rep growth: further read-out of Mtb hypoxia rep, marked with its call; growth inhibition, %; measured here: M. tuberculosis growth (absorbance);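 0% = vehicle and 100% = reference antibiotic; read after six days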
Active calls of the source: *; / = not tested or not shown. This is a random part of the collection; 4% or so of the library scored in one or more.

SMILES	PrP UTR inh	Bead autofluor	Mtb hypoxia rep	Mtb hypoxia rep growth	Sa ugtP lethal	Sa RN4220 lethal	BJeLR viability
Cc1oc(-c2ccc(Cl)cc2)nc1CSCC(=O)NCCCN1CCOCC1	-6	8752	3	4	-1	1.7	-8
Cn1c(=O)oc2cc(S(=O)(=O)NCCC(=O)N3CC=C(c4ccccc4)CC3)ccc21	-24	23639*	4	5	3	6.0	6
CCCn1c(N)c(N(CCOC)C(=O)c2cccc(C(F)(F)F)c2)c(=O)[nH]c1=O	1	4725	-15	-12	1	4.9	-2
COc1cccc(NC(=O)c2ccc3c(c2)CCN3S(C)(=O)=O)c1	-32	3539	1	-4	5	4.6	3
Cc1ccc(NC(=O)CSCC(=O)N(C)CC(=O)Nc2ccccc2C(F)(F)F)cc1	2	6020	12	1	1	-0.7	/
CN(C(=O)CN1C(=O)/C(=C/c2ccccc2F)SC1=S)C1CCS(=O)(=O)C1 (centres undefined)	-6	5654	6	14	0	1.9	-10
C[C@H](NS(=O)(=O)c1ccc(Cl)cc1)C(=O)OCC(=O)c1ccc[nH]1	/	3522	-1	-6	2	-0.1	-2
O=C(O)C1Cn2c(nc3c(c2=O)C2(CCCC2)Cc2ccccc2-3)S1 (centres undefined)	-37	4485	7	5	2	10	6
CCC(=O)NC(c1ccccc1)c1nc2ccccc2[nH]1 (centres undefined)	-21	7010	10	12	3	1.7	1
Cc1ccc(NC(=O)c2ccc(C#CC3(O)CCCCC3)cc2)cc1C	-23	22190*	9	13	-10	3.0	4
COc1cc(C(=O)O)nc2ccccc12	-40	3163	/	/	-2	6.8	2
CC(=O)C1=C(C)OC(N)=C(C#N)C1c1cccc([N+](=O)[O-])c1 (centres undefined)	-11	3197	/	/	/	/	5
CCS(=O)(=O)N1CCCC(C(=O)NCc2ccc3c(c2)OCO3)C1 (centres undefined)	-5	3422	/	/	-2	1.0	2
COc1cc2cc(C(=O)N/N=C/c3cccc(OC)c3OC)[nH]c2cc1OC	-12	2943	/	/	/	/	2
COc1ccc(C(=O)N2CC(c3ccccc3)CC2=O)cc1 (centres undefined)	-23	4857	-5	9	4	4.9	10
Nc1ccc2cc(Br)ccc2c1	-19	2972	8	13	4	-4.9	19
Cn1ncc(Cl)c1C(=O)N1CCC2(CC1)OCCO2	-6	/	9	-7	4	1.7	5
Cn1c(=O)c(=O)n(C)c2cc(S(=O)(=O)N3CCCC3C(=O)Nc3ccc(F)cc3)ccc21 (centres undefined)	-19	6064	/	/	4	-1.7	-11
CCNc1nc(Oc2ccc(=O)[nH]n2)nc(N2CCOCC2)n1	-15	/	4	5	-4	-1.0	2
CCC(=O)Nc1ccc(S(=O)(=O)N2CCCCC2)cc1OC	-50	10577	4	3	2	-0.5	1
Cc1cccc(C)c1NC(=O)CN(C)C(=O)CN1C(=O)NC2(CCCC2)C1=O	-6	6076	2	-5	-5	2.0	-5
O=C(O)CC(c1ccccc1)c1ccccc1	7	11062	3	11	3	1.2	-11
O=C(NNS(=O)(=O)c1ccccc1)C1CCCCC1	-21	2912	6	3	6	3.5	0
Cc1ccc(C(=O)C(C)OC(=O)Cc2n[nH]c(=O)c3ccccc23)cc1C (centres undefined)	-2	5144	-6	5	-1	-0.2	-8
COc1ccc(-c2c3c(=O)n(C)c(=O)n(C)c3cn2Cc2cccnc2)cc1	-23	3022	1	5	-13	-15	4
CC1(c2ccc3c(c2)OCCO3)NC(=O)N(CC(=O)Nc2c(F)cccc2F)C1=O (centres undefined)	-1	6242	9	6	5	0.7	/
Cc1ccc(N2C(N)=C(C#N)C3(C(=O)N(C)c4ccccc43)C3=C2CC(C)(C)CC3=O)cc1Cl (centres undefined)	-23	2808	5	7	-6	-5.8	-8
O=C(CSc1nc(-c2ccc(F)cc2)cs1)N1CCc2ccccc21	-18	9680	4	5	3	2.7	-3
Nc1ccccc1C(=O)N/N=C1/C2CN3CCN(C2)CC1(Cc1ccccc1)C3	-19	4739	/	/	/	/	3
Cc1ccnc(NC2(C(F)(F)F)N=C3SCCN3C2=O)c1 (centres undefined)	-26	4066	-2	6	2	8.0	-12
COc1cccc(-n2c(=S)[nH]c3ccccc3c2=O)c1	-13	2751	-4	2	-12	-1.9	-10
CNC(=O)c1[nH]cnc1C(=O)Nc1ccccc1OC	-13	2788	5	8	-7	-0.1	7
CC=C(C)C(=O)OC1C(O)c2c(ccc3ccc(=O)oc23)OC1(C)C (centres undefined)	/	/	2	5	-5	8.1	/
COC(=O)C1CCN(CC(=O)Nc2ccc(OC)c(Cl)c2)CC1	32	5936	19	7	9	5.0	-5
O=C(Cn1cc2c(n1)CCCCC2)NCc1ccccc1	-10	4622	/	/	6	-1.5	-2
CC(=O)/C(N=Nc1c(C)n(C)n(-c2ccccc2)c1=O)=C(\C)O	-12	4248	-2	4	8	3.5	-7
Cc1nc2ccccc2n(CC(=O)Nc2cc(Cl)cc(Cl)c2)c1=O	-3	4600	14	6	-21	6.5	1
Cc1ccccc1C(=O)N1CCN(CCNC(=O)C(=O)Nc2ccc(Br)cc2)CC1	-6	6316	-2	-5	-1	-0.9	-2
COc1ccccc1OCCc1nnc(N)s1	-37	11132	0	10	-6	-1.0	0
OCCN(Cc1ccccc1)Cc1cccc(Cl)c1Cl	-16	11501	16	3	1	0.6	2
CCOC(=O)c1sc(NC(=O)c2ccc(CC)s2)nc1C	-43	19861*	-1	4	3	3.9	-9
COc1ccc(N2CCN(C(C)C(=O)N3CCCC3)CC2)cc1 (centres undefined)	-20	5062	-5	8	3	11	2
CNC(=S)N1CCC(NC(=O)C(Cc2ccc(F)cc2)NC(C)=O)CC1 (centres undefined)	-28	3465	-4	5	5	1.4	-12
C=CCN=C1N[C@@H](c2ccccc2)C(C(=O)OC)=C(C)N1CCOC	-15	3661	3	6	-4	-11	10
COc1cc(NC(=O)n2ncc3cc(Cl)ccc32)cc(OC)c1	-70	3778	-13	-19	1	1.4	1
Nc1nonc1C(=O)NN=Cc1ccc([N+](=O)[O-])o1	/	/	52*	31*	70	22	/
Cc1ccc(-c2cn(CCN)c(-c3ccncc3)n2)cc1	-9	3069	9	7	-12	3.1	/
COC(=O)c1ccc(C(=O)NC2CCSc3ccccc32)cc1 (centres undefined)	-25	4297	1	0	2	2.8	3
OCCCCNc1cccc2ccccc12	-23	6319	5	8	-11	5.7	-2
CCCn1c(N)c(N(CCOC)C(=O)c2cccc(Cl)c2)c(=O)[nH]c1=O	-20	3823	15	4	0	4.2	-5
Next structures follow.
SMILES	PrP UTR inh	Bead autofluor	Mtb hypoxia rep	Mtb hypoxia rep growth	Sa ugtP lethal	Sa RN4220 lethal	BJeLR viability
COc1ccc(CCNC(=O)CCC(=O)N2CCOc3ccc(Cl)cc32)cc1OC	-24	6643	6	7	-3	-10	-1
CCC(C)NC(=O)C1=CCN(S(=O)(=O)c2ccc(C)cc2)CC1 (centres undefined)	10	4248	2	-1	4	4.4	-10
COc1ccc(N(CC(=O)N/N=C/c2cccnc2)S(=O)(=O)c2ccc(C)cc2)cc1OC	-1	5717	/	/	/	/	-2
Cc1cc(C)nc(Nc2n[nH]c(-c3ccc(C(C)(C)C)cc3)n2)n1	-37	4588	4	4	6	4.8	8
Cc1cc2c(C)nc(-c3ccccc3)nc2o1	-82	3439	2	11	-1	4.0	-2
C=C(C)C1CC=C(C)C(=NNC(=S)Nc2ccc(C)cc2)C1 (centres undefined)	/	/	2	-1	30	-2.6	/
S=C(NC1CCCCC1)N1CCN(C/C=C/c2ccccc2)CC1	-16	2499	8	4	10	-1.3	0
COC(=O)CCc1c(C)c(C#N)c2nc3ccccc3n2c1N1CCCC1	-1	22382*	-1	-3	2	0.9	1
Cn1c(O)c(C=Nc2ccc(Br)cc2)c(=O)n(C)c1=O	-12	3598	0	-3	9	4.4	-6
CCCCn1c(CCNC(=O)CC)nc2ccccc21	-14	5751	-5	10	-5	-11	-3

3 compounds picked at random from the list so far, as already listed:
SMILES	PrP UTR inh	Bead autofluor	Mtb hypoxia rep	Mtb hypoxia rep growth	Sa ugtP lethal	Sa RN4220 lethal	BJeLR viability
Cc1cc(C)nc(Nc2n[nH]c(-c3ccc(C(C)(C)C)cc3)n2)n1	-37	4588	4	4	6	4.8	8
Cn1c(O)c(C=Nc2ccc(Br)cc2)c(=O)n(C)c1=O	-12	3598	0	-3	9	4.4	-6
S=C(NC1CCCCC1)N1CCN(C/C=C/c2ccccc2)CC1	-16	2499	8	4	10	-1.3	0

Part of the list above in a different format.
| Compound | PrP UTR inh | Bead autofluor | Mtb hypoxia rep | Mtb hypoxia rep growth | Sa ugtP lethal | Sa RN4220 lethal | BJeLR viability |
| --- | --- | --- | --- | --- | --- | --- | --- |
| COc1ccc(N2CCN(C(C)C(=O)N3CCCC3)CC2)cc1 (centres undefined) | -20 | 5062 | -5 | 8 | 3 | 11 | 2 |
| CNC(=S)N1CCC(NC(=O)C(Cc2ccc(F)cc2)NC(C)=O)CC1 (centres undefined) | -28 | 3465 | -4 | 5 | 5 | 1.4 | -12 |

Among those listed so far, two contain a furan ring, fused or not:
SMILES	PrP UTR inh	Bead autofluor	Mtb hypoxia rep	Mtb hypoxia rep growth	Sa ugtP lethal	Sa RN4220 lethal	BJeLR viability
Nc1nonc1C(=O)NN=Cc1ccc([N+](=O)[O-])o1	/	/	52*	31*	70	22	/
Cc1cc2c(C)nc(-c3ccccc3)nc2o1	-82	3439	2	11	-1	4.0	-2

Entries of single compounds, quoted from the list.
Shown for `COc1ccc(N(CC(=O)N/N=C/c2cccnc2)S(=O)(=O)c2ccc(C)cc2)cc1OC` : PrP UTR inh: -1; Bead autofluor: 5717; Mtb hypoxia rep: /; Mtb hypoxia rep growth: /; Sa ugtP lethal: /; Sa RN4220 lethal: /; BJeLR viability: -2
Shown for `CCCCn1c(CCNC(=O)CC)nc2ccccc21` : PrP UTR inh: -14; Bead autofluor: 5751; Mtb hypoxia rep: -5; Mtb hypoxia rep growth: 10; Sa ugtP lethal: -5; Sa RN4220 lethal: -11; BJeLR viability: -3
Shown for `Cc1cc2c(C)nc(-c3ccccc3)nc2o1` : PrP UTR inh: -82; Bead autofluor: 3439; Mtb hypoxia rep: 2; Mtb hypoxia rep growth: 11; Sa ugtP lethal: -1; Sa RN4220 lethal: 4.0; BJeLR viability: -2

Further records:
SMILES	PrP UTR inh	Bead autofluor	Mtb hypoxia rep	Mtb hypoxia rep growth	Sa ugtP lethal	Sa RN4220 lethal	BJeLR viability
C[C@H]1CC[C@@]2(O[C@@H](CCO)C[C@H](O)[C@H]2O)O1	-4	3086	/	/	/	/	4
CC1CCCC(NC(=O)CSc2n[nH]c(=O)n2Cc2ccccc2)C1C (centres undefined)	/	4072	11	-5	1	1.7	/
COc1ccc(C)cc1S(=O)(=O)Nc1cccc(-c2cn3cccnc3n2)c1	0	4391	-20	-3	-2	3.0	-9
COc1ccc(N2CCN(C(=O)CCNS(=O)(=O)c3cccs3)CC2)cc1	-11	7785	5	7	2	2.3	1
O=C(NC(=S)Nc1ccc(CN2CCCCC2)cc1)c1cc2ccccc2o1	-11	4418	-3	4	20	-2.1	14
CC(Sc1nnnn1C1CCCC1)C(=O)Nc1cccc(S(=O)(=O)N2CCOCC2)c1 (centres undefined)	-11	2860	-3	-3	1	3.3	/
Cc1nnc2sc(-c3cccc(F)c3)nn2c1=O	-8	3375	4	3	5	2.7	-8
NS(=O)(=O)c1ccc(CCNc2ncnc3c2c(-c2ccccc2)cn3-c2ccc(F)cc2)cc1	-17	2861	3	3	-3	3.8	-6
Cc1ccc(CN2CCSCC2)cc1	-10	3221	7	12	11	4.0	-5
NNC(=O)Cn1c(SCc2ccccc2)nc2ccccc21	-5	2783	/	/	-3	9.4	0
COc1ccc(Nc2ccc([N+](=O)[O-])cc2[N+](=O)[O-])cc1	-14	3307	8	2	1	12	5
Cc1noc(/C=C/c2ccco2)c1S(=O)(=O)N1CCC(C(=O)NCc2ccco2)CC1	-33	10386	-2	-1	2	1.6	-8
CC(=O)NCCC(=O)Nc1ccc(C(N)=O)cc1	-7	4495	/	/	/	/	0
COc1ccc(NC(=O)CSc2nnc(Cc3ccc(C)cc3)c(=O)n2N)cc1OC	-19	4760	0	-3	4	0.0	3
CCOC(=O)Cn1c(=O)c2c(nc3n2CCCCN3c2ccc(C)cc2)n(C)c1=O	-15	3289	13	7	8	2.0	-5
CCOC(=O)C1=C(N)N2C(=O)C(C)SC2=C(C(=O)OC)C1c1ccccc1OC (centres undefined)	-10	2287	/	/	11	4.7	/

Bioassay records: PubChem, several laboratories
